Screening results from PubChem.
HCMV NEC inh – disrupts HCMV UL50-UL53 complex binding; HTRF UL50-UL53 interaction, normalized percent inhibition; inhibition, % (no concentration beside the values); actives 0.15% (n = 190,000); AID 1918969;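 active means both replicates at 50% or more, plus weaker picks with an unusually low signal ratio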;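 further: stock transfer was 100 nL into about 20 µL; 0% = negative control wells and 100% = wells with untagged competitor protein; inactives centre near -12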
GIV-Gai inh – GIV-Galpha-i interaction inhibition; P08753; Galpha-i3/FITC-GIV peptide fluorescence polarization, 90 min; active compounds read low; scaled: aluminum fluoride 0%, vehicle 100%; percent of control (FP), % (no concentration beside the values); actives 0.42% (n = 210,000); AID 1224905;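 active means replicate mean at 85% of control or lower, very high polarization wells dropped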;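 further: wells of about 15 µL received 100 nL stock; the first replicate is given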
Target sequence (P08753 whole entry, looked up): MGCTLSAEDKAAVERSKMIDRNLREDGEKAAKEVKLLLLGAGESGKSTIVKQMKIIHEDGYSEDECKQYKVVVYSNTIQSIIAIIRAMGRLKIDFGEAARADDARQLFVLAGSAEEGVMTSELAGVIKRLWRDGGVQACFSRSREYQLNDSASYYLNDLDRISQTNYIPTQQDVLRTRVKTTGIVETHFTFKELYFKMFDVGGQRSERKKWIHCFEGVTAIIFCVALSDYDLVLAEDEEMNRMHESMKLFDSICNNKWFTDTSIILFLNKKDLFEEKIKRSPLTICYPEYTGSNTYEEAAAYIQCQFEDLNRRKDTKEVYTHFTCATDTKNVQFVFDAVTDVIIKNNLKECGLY
Sa growth 42C – inhibitors of Staphylococcus aureus growth at 42 °C; S. aureus RN4220 growth, OD600, 20 h; active compounds read low; relative growth, % (test concentration not listed); actives 0.53% (n = 170,000); AID 720641;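 active means growth at 42 °C up to 50% and 20 or more points under that at 30 °C, or under 10% at both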;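 further: 300 nL library stock went into each well; scaled to the means of positive and negative controls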
Sa growth 42C second temp – further read-out of Sa growth 42C, marked with its call; relative growth, %; measured here: growth at 30 °C;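 optical density after 20 h as mean of two plates; 100% = untreated growth and lower means inhibition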
The depositor's hits bear a star; · = no result given; & = joins results of further samples.

SMILES	HCMV NEC inh	GIV-Gai inh	Sa growth 42C	Sa growth 42C second temp
CC1CCN(c2cc(C(C)C)nc3nc(-c4cccnc4)nn23)CC1	-8	106	·	·
CC(c1ccc(F)cc1)n1cc(C(=O)NCCN(C)C)nn1 (stereo not drawn)	-13	·	90	85
O=C(NCc1noc(C2CCCC2)n1)C1CCCCC1	8	102	·	·
Cc1ccccc1-c1nc(CS(=O)(=O)CC(=O)NCCc2ccccc2)c(C)o1	-2	101	84	96
O=S(=O)(/N=C1\SCCN1S(=O)(=O)c1ccc(Cl)cc1)c1ccc(Cl)cc1	·	101	95	93
COc1ccc(C(=O)N(CC(=O)NC2CCCC2)Cc2ccc3c(c2)OCO3)cc1OC	-26	96	89	94
CC(C)(C)c1nnc2n1N=C(c1ccc(Br)s1)CS2	-6	·	108	109
NCC(c1ccc(F)cc1)N1CCCCCC1 (stereo not drawn)	26	104	96	74
CCOc1ccc(NC(=O)CN2N=C(c3ccc(C)cc3)CCC2=O)cc1	2	105	107	97
CNc1nccc(C(F)(F)F)c1C(=O)Nc1c(C)cccc1C	-3	104	116	95
CC(C)c1ccc(CNc2nc(-c3ccco3)nn2C(=O)c2ccc([N+](=O)[O-])cc2)cc1	-88	100	107	84
O=C(O)CSc1nnc(C2CCCCC2)n1/N=C/c1cccc(F)c1	1	·	103	99
C=CCNC(=O)c1ccc2snnc2c1	-22	106	97	84
Cc1c(NC(=O)C(C)(C)C)cccc1-c1nc2ccccc2s1	-3	101	109	81
Cc1ccc(S(=O)(=O)NNS(C)(=O)=O)cc1	8	·	105	97
N#C/C(C(=O)c1ccccc1)=c1/s/c(=C\c2cccs2)c(=O)n1Cc1ccco1	-13	·	76	92
Cc1nc(SCC(=O)NC(C)(C#N)C2CC2)c2c(C)c(C)sc2n1 (stereo not drawn)	-39	·	97	85
CCN1CCN(S(=O)(=O)c2ccccc2)CC1	-4	97	99	84
CC(C)(C)c1ccc(-c2noc(CSc3n[nH]c(=O)n3Cc3ccco3)n2)cc1	-8	110	97	85
CCOC(=O)Cc1csc(NC(=O)CSc2nc(=O)cc(N)n2-c2cccc(C)c2)n1	2	101	104	103
CCSc1nnc(NC(=O)C2=NN(c3cc(C)ccc3C)C(=O)CC2)s1	-9	·	102	89
OC(CN1CCc2ccccc21)C(F)(F)F (stereo not drawn)	-10	101	·	·
CC1(C)OC(=O)C(=Cc2ccc3c(c2)OCO3)C(=O)O1	17	98	91	90
c1ccc(-c2noc(-c3cccs3)n2)cc1	-3	102	69	73
COC(=O)c1ccc(NC(=O)c2cc(S(=O)(=O)N3CCc4ccccc43)cn2C)cc1	1	99	128	99
SMILES	HCMV NEC inh	GIV-Gai inh	Sa growth 42C	Sa growth 42C second temp
Cc1cccc(NC(=O)CN(C)C(=O)C2CCCC2)c1C	-36	·	104	90
N/C(=N\S(=O)(=O)c1ccc(Cl)cc1)N1CCSCC1	-21	108	86	88
Cc1sc(C2C(C#N)=C(N)N(c3cccc(Cl)c3)C3=C2C(=O)CCC3)cc1CN1CCOCC1 (stereo not drawn)	-17	117	110	88
COC(=O)c1sccc1NC(=O)NCc1c(-n2cccc2)sc2c1CCN(C)C2	-8	103	·	·
Cc1cc(C)c(/C=C/c2onc(C)c2S(=O)(=O)N2CCCC(C(=O)N3c4ccccc4CC3C)C2)c(C)c1 (stereo not drawn)	-17	105	·	·
COc1cc(/C=C2/C(=O)N(c3cccc(Br)c3)N=C2C)ccc1OC(C)C	-19	101	·	·
CCc1ccc(NC(=O)CN2C(=O)CCc3cc(S(=O)(=O)N4CCCCC4)ccc32)cc1	-5	111	107	91
Cc1cc(C)c2c(-n3cccc3)c(C(=O)N3CCN(C4CCCCC4)CC3)sc2n1	10	103	·	·
Cc1cc(C)c2c(=O)cc(C(=O)NCc3ccc(S(N)(=O)=O)cc3)oc2c1	6	103	94	89
Cc1oc2ncnc(N3CCC(C(=O)NCc4ccc(Cl)cc4)CC3)c2c1C	6	107	·	·
CN(C(=O)Cn1c(=O)n(CCCCC(=O)NC2CCCC2)c(=O)c2ccccc21)C1CCCCC1	·	103	103	95
CN(C)CCCN(C(=O)c1ccccc1Cl)c1nc2ccc(F)cc2s1	-7	109	·	·
Cc1cccc(N2CCN(C(=O)c3ccc4nc(N5CCC(C)CC5)sc4c3)CC2)c1C	-15	101	98	94
Cc1cccc(OCC(=O)Nc2nnc(S(=O)(=O)N3CCCCCC3)s2)c1	-3	103	98	78
Cc1ccc(C=Nc2ccc(Nc3ccccc3)cc2)s1	-1	·	80	67
Cc1ccc2c(c1)N(C(=O)NCc1ccccc1)CCO2	-1	105	92	99
Cc1ccc(CNC(=O)CN2CCN(C(=O)Nc3ccccc3)CC2=O)cc1	-10	100	·	·
CCc1cccc(NC(=O)CSC2=Nc3ccccc3N=C(c3ccc(F)cc3)C2)c1	·	110	76	89
Cc1ccc(C(=O)CC(C(=O)O)c2cn(CCC#N)c3ccccc23)cc1 (stereo not drawn)	·	101	107	97
CNC(=O)Nc1ccc2nc(C)oc2c1	-24	104	95	92
COc1ccc(OC)c(S(=O)(=O)NCC(c2ccc(N(C)C)cc2)N2CCOCC2)c1 (stereo not drawn)	·	95	91	94
Cc1ccc(C2CC(=O)N(c3ccc(F)cc3F)C(=O)C2)cc1	-32	106	·	·
Cc1ccc(S(=O)(=O)N(C)CC(=O)N2CCC(Cc3ccccc3)CC2)cc1	-24	·	104	88
O=C(NC1CCN(C(=O)c2cccs2)CC1)c1ccccc1	-8	103	110	97
O=C(Nc1ccccc1-c1nc2ccccc2[nH]1)c1ccc(S(=O)(=O)N2CCOCC2)cc1	-8	101	·	·
SMILES	HCMV NEC inh	GIV-Gai inh	Sa growth 42C	Sa growth 42C second temp
CC(C)N=C1NN=C(c2cccs2)CS1	-45	·	99	95
COc1ccc2[nH]c(=O)c(CN(Cc3ccc4c(c3)OCO4)C(C)=O)cc2c1	-8	110	87	92
CC(CN1C(C)CCCC1C)OC(=O)c1cccc(F)c1 (stereo not drawn)	-14	101	104	80
Cc1ccc(CSc2nnc(CCC(=O)O)c(=O)n2N)cc1	-22	104	109	92
C/C(=N\O)C(=O)NCCN1CCCCC1	-14	98	104	86
Cc1ccc(N(C)S(=O)(=O)c2nnc(NC(=O)c3ccco3)s2)cc1	-5	101	78	76
COC(=O)COc1ccccc1OC	-16	101	89	87
Cc1ccc(C)c(Cn2c(C(=O)O)c(CNCc3cccs3)c3ccccc32)c1	-41	108	87	82
Cc1cccc(-c2cc(N3CCN(S(=O)(=O)c4ccc(F)c(Cl)c4)CC3)ncn2)c1	-13	102	·	·
Cc1cc(NC2CCCCC2)ncn1	13	114	·	·
Cn1c(=O)c2c(-c3ccccc3Br)n(C(C)(C)C)cc2n(C)c1=O	10	109	83	95
Cc1cc(C)nc(SCc2nnc(SC/C=C/c3ccccc3)o2)n1	·	95	106	85
CC1CC(=O)N(c2cccc(C(=O)O)c2)C1=O (stereo not drawn)	-8	99	79	92
N#Cc1cnn(-c2c(Cl)cc(C(F)(F)F)cc2Cl)c1N	-5	96	114	93
Cc1ccc(Nc2nc(N)nc(CSc3nc4c(n3-c3ccccc3)CCCC4)n2)cc1	-46	·	86	59
Cn1nc(N2CCN(CC(=O)Nc3ccc(OC(F)(F)F)cc3)CC2)c(=O)n(C)c1=O	4	·	99	98
Cc1noc2c1C(C(C)C)C1=C(CC(c3ccc(Cl)cc3)CC1=O)N2 (stereo not drawn)	1	102	·	·
CNC(=O)CCC(=O)Nc1cc(Cl)ccc1Cl	-22	·	91	84
COC(=O)C1=C(C)N(C)C(=O)NC1c1ccc(OC)c(Br)c1 (stereo not drawn)	-4	·	109	86
Cn1ccnc1SCCN	-25	101	92	74
CCCNc1ncnc2c1c(-c1ccccc1)cn2-c1ccc(OCC)cc1	·	109	70	64
CC(=O)N1c2ccc(S(=O)(=O)NC(Cc3ccccc3)C(=O)N3CCC(C)CC3)cc2CC1C (stereo not drawn)	5	107	·	·
CC1CCC(NC(=O)c2cncc(Br)c2)CC1 (stereo not drawn)	-7	105	103	98
CC(Oc1ccc(Cl)cc1Cl)C(=O)Nc1ccc2oc(-c3ccncc3)nc2c1 (stereo not drawn)	-11	104	102	99
COc1cc(C2C(C(=O)OCCOc3ccccc3)=C(C)NC3=C2C(=O)CC(C)(C)C3)cc(Br)c1O (stereo not drawn)	-5	99	·	·
SMILES	HCMV NEC inh	GIV-Gai inh	Sa growth 42C	Sa growth 42C second temp
O=C(O)c1ccccc1NCc1ccccc1Cl	28	·	100	109
COc1ccc(NC(=O)CCS(=O)(=O)c2cccc3nonc23)cc1Cl	-84	101	87	94
CCOc1ccc(NC(=O)Nc2ccccc2Sc2ccc3nncn3n2)cc1	-31	96	·	·
Cc1ccccc1NC(=O)Nc1cc2sccc2n1C	7	128&107	109	60
O=c1oc2ccc3ccccc3c2cc1-c1nnc(-c2ccccc2)o1	-6	98	·	·
Fc1ccccc1-c1nc(-c2cccc(C(F)(F)F)c2)no1	-22	101	103	99
O=C1Nc2ccccc2O/C1=C\c1ccccc1	·	105	95	82
COc1cccc2cc(C(=O)NCCc3c(C)[nH]c4ccc(F)cc34)c(=O)oc12	-34	106	114	95
O=C(CCN1N=C(c2ccccc2)CCC1=O)NCCCN1CCCCCC1	·	101	95	87
CC(=O)NC(CCc1ccccc1)C(=O)O (stereo not drawn)	-16	98	95	90
CCN(C(=O)c1cnc(NC(C)C)cc1C(F)(F)F)c1ccc(Cl)cc1	-2	108	93	94
Cc1nc(Br)sc1C(=O)O	-3	117	93	86
CCc1ccc(CNC(=O)C2CCCN(S(=O)(=O)N3CCOCC3)C2)cc1 (stereo not drawn)	-8	100	·	·
CN(C)C(=S)SCC(=O)N1c2ccccc2NC(=O)C1(C)C	-22	·	91	80
CCn1nc(-c2ccccc2)c(-c2ccccc2)c(C(=O)Nc2nc(C)c(C(C)=O)s2)c1=O	-27	98	102	87
CCN(CC(=O)NCc1ccc(F)cc1)C(=O)Cn1c(C)nc2ccccc21	-20	·	93	93
CC1=C(C(=O)Nc2ccccc2C)C(c2cccs2)n2nc(SCc3ccccc3)nc2N1 (stereo not drawn)	-103	104	107	98
COC(=O)c1ccc(CNC(=O)C(C)Sc2ccccc2)cc1 (stereo not drawn)	-8	·	90	94
CC(C)(C)c1ccc(OCCn2cc(C(=O)c3ccco3)c3ccccc32)cc1	-5	97	76	79
Cc1ccccc1N1C(=O)c2ccccc2S1(=O)=O	·	90	106	90
O=C1CC(c2cccc(Cl)c2)=Nc2ccccc2N1	-32	101	·	·
COc1cc(CNCc2ccco2)ccc1OCC(N)=O	-22	99	91	75
O=C(NCCCN1CCOCC1)NCc1cccc2ccccc12	-45	103	103	89
CCCCN1C(=O)c2ccc(C(=O)N3CCc4ccccc43)cc2C1=O	-46	·	93	89
CCS(=O)(=O)c1ccc(OCc2cc(=O)n3oc(C)cc3n2)c(NC(=O)COc2ccccc2F)c1	-18	99	·	·

Gathered by group, the compounds so far containing a thiophene ring, fused or not.
SMILES	HCMV NEC inh	GIV-Gai inh	Sa growth 42C	Sa growth 42C second temp
CC(C)(C)c1nnc2n1N=C(c1ccc(Br)s1)CS2	-6	·	108	109
N#C/C(C(=O)c1ccccc1)=c1/s/c(=C\c2cccs2)c(=O)n1Cc1ccco1	-13	·	76	92
Cc1nc(SCC(=O)NC(C)(C#N)C2CC2)c2c(C)c(C)sc2n1 (stereo not drawn)	-39	·	97	85
c1ccc(-c2noc(-c3cccs3)n2)cc1	-3	102	69	73
Cc1sc(C2C(C#N)=C(N)N(c3cccc(Cl)c3)C3=C2C(=O)CCC3)cc1CN1CCOCC1 (stereo not drawn)	-17	117	110	88
COC(=O)c1sccc1NC(=O)NCc1c(-n2cccc2)sc2c1CCN(C)C2	-8	103	·	·
Cc1cc(C)c2c(-n3cccc3)c(C(=O)N3CCN(C4CCCCC4)CC3)sc2n1	10	103	·	·
Cc1ccc(C=Nc2ccc(Nc3ccccc3)cc2)s1	-1	·	80	67
O=C(NC1CCN(C(=O)c2cccs2)CC1)c1ccccc1	-8	103	110	97
CC(C)N=C1NN=C(c2cccs2)CS1	-45	·	99	95
Cc1ccc(C)c(Cn2c(C(=O)O)c(CNCc3cccs3)c3ccccc32)c1	-41	108	87	82
Cc1ccccc1NC(=O)Nc1cc2sccc2n1C	7	128&107	109	60
CC1=C(C(=O)Nc2ccccc2C)C(c2cccs2)n2nc(SCc3ccccc3)nc2N1 (stereo not drawn)	-103	104	107	98

(cont.)
SMILES	HCMV NEC inh	GIV-Gai inh	Sa growth 42C	Sa growth 42C second temp
Cc1ccc2oc(-c3ccc(NC(=O)c4ccccc4F)c(C)c3)nc2c1	-20	100	·	·
COc1ccc(NC(=O)Cn2nnc(C(=O)NCc3ccco3)c2N)c(OC)c1	-9	105	86	98
O=S(=O)(NCCn1c(-c2ccncc2)nc2cccnc21)c1ccc(Br)cc1	-17	104	·	·
CC(CCc1ccccc1)NC(=O)C(C)N1CCN(C(=O)c2ccccc2)CC1 (stereo not drawn)	-9	·	103	95
CCc1nnc(NC(=O)Cc2coc3ccc(C)cc23)s1	·	105	88	85
CC(=O)c1cccc(NC(=O)C2=CC(c3ccc4c(c3)OCO4)=NS(=O)(=O)N2C)c1	-26	106	97	75
COC(=O)N/N=C/c1ccccc1Br	-26	·	88	91
COc1ccc(-c2cc(C(F)(F)F)nc(SCC(=O)N3CCCCC3C)n2)cc1OC (stereo not drawn)	-27	105	99	86
CC(C)(C)c1ncc(S(=O)(=O)c2ccc(C(F)(F)F)cn2)c(N)n1	34	105	106	98
